# rRNA inh HTS: reduced GFP signal of wild-type E. coli, primary screen, bacterial rRNA inhibitor project, GFP/RFP fluorescence, OD600, single point. E. coli WT GFP vs humanized-ribosome RFP mutants, 24 h; active compounds read low; DMSO median 0, no signal -100. GFP signal change (wild-type ribosome), % (test concentration not listed). hit rate 1.6% among 350,000. AID 720706, 2013;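 active = significant combined selectivity score with lowered wild-type GFP, culture density cut under 30%, mutant RFP and density less affected; inactive = any of these conditions unmet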; also: one replicate is shown; some compounds called inactive have numbers as strong as hits
# Beta cell apopt: inhibitors of cytokine-induced beta cell apoptosis, primary screen, luminescence. hit rate 0.8% among 300,000. AID 435005, 2010. INS-1E cytokine-induced death, ATP luminescence, 48 h; percent of positive-control rescue, neutral wells zero. protection from apoptosis, % (concentration not given with the values);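 active = all replicates at 75% or more, or half of them and the mean; inconclusive = half reach 75% but not the mean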;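 also: 0% = cytokine-treated negative control wells and 100% = positive control rescue; higher means more ATP so stronger rescue from cytokine killing; wells of about 40 µL received 100 nL stock; the first replicate is given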
# Bfl-1 A1 inh: caspase 3/7 activation in MEF A1-2A-BIM cells, primary screen, A1 inhibitor project, cell-based, luminescence, HTS; Caspase-Glo 3/7 luminescence, 3 h; percent of clofoctol response, vehicle zero; caspase activation, % (concentration not given with the values); hit rate 0.066% among 330,000; AID 2462, 2010;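 active = over half of replicate activation scores above 10%, or exactly half above 10 with the replicate mean above 10; inconclusive = replicate mean below 10 yet half the replicates above 10; inactive = over half of replicates below 10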;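 also: wells of about 30 µL received 50 nL stock; many hits fall short of the cut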
# LANA-H2A inh: blockers of LANA interaction with H2A/H2B – biochemical, FP readout, HTS, primary screen. Protein LANA1 (Human herpesvirus 8 type P (isolate GK18)), Q9QR71. cell-free LANA-H2A/H2B peptide, fluorescence polarization. inhibition, % (no concentration beside the values). hit rate 0.6% among 320,000; in the data active = inhibition mostly above about 10%, no sharp cut-off; inactive = mostly below about 6.7%;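 also: stock transfer was 7.5 nL into about 10 µL; 0% = median of vehicle wells and 100% = median of positive control wells; one replicate is shown; the record names a cut of 25% in any replicate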
# ALR H2O2 inh: inhibitors of human ALR sulfhydryl oxidase, primary screen, biochemical, H2O2 detection, HRP-luminol luminescence, single point; FAD-linked sulfhydryl oxidase ALR (Homo sapiens), P55789; purified ALR, DTT oxidation; inhibition, % (concentration not given with the values); hit rate 3.8% among 290,000;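 active = mean and each replicate at 75% or more; inconclusive = only one of the two met; inactive = neither met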;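 also: stock transfer was 7.5 nL into about 7.5 µL; 0% = neutral wells and 100% = wells with inactivated enzyme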
# Target sequence (P55789 whole entry, looked up): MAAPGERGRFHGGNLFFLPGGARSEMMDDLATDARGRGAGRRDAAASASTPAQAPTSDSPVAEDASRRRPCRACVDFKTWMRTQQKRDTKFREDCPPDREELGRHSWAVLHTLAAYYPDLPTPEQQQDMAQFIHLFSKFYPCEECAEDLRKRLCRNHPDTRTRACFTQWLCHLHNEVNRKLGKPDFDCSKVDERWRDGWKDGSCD
# Beta2AR agonist: beta2AR agonists driving receptor internalization, primary screen, cell-based, FAP fluorogen, flow cytometry | response, % (no concentration beside the values) | Am2.2-beta2AR cells; reference of the scale not given here | Beta-2 adrenergic receptor (Homo sapiens), P07550 | AID 504454, 2011 | hit rate 0.43% among 340,000;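 active = response above a set limit, near 3 SD of response in nonfluorescent compounds, cut at about 42% in these data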;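 also: stock transfer was 100 nL into about 11 µL; a reference agonist was the positive control; negative values mostly stem from fluorescent compounds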
# Target sequence (P07550 whole entry, looked up): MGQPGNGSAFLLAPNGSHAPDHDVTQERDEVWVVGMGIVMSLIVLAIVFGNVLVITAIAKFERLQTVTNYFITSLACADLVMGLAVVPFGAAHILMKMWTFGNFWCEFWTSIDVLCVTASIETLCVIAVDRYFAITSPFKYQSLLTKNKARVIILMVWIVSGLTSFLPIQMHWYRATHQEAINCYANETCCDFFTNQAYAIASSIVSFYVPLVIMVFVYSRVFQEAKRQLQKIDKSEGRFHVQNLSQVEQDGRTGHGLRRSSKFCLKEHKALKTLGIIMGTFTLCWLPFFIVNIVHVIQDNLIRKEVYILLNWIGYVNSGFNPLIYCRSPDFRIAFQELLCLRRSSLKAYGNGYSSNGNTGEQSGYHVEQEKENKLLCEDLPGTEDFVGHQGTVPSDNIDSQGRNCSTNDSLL
# T cruzi repl: inhibitors of intracellular T. cruzi growth, primary screen, luminescence, NIH3T3 host cells; AID 1885, 2009; hit rate 1.4% among 300,000; T. cruzi beta-gal in NIH3T3, 90 h; inhibition, % (test concentration not listed);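 active = mean inhibition across valid replicates above about 55%, limit read from the data; inconclusive = mean below that limit but half or more replicates reach it; inactive = mean below it, under half of replicates reach it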;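 also: signal also drops with host cell toxicity which is not excluded here; 0% = plate median of DMSO wells and 100% = zero luminescence signal; higher percent means less beta-gal luminescence so fewer parasites; stock transfer was 50 nL into about 50 µL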
# Calb FLC: C. albicans growth inhibition with fluconazole, primary screen, CaCi-2 strain, Alamar Blue fluorescence | C. albicans CaCi-2 (fluconazole-resistant clinical isolate) + fluconazole, 48 h | growth inhibition, % (no concentration beside the values) | hit rate 0.57% among 300,000 | AID 1979, 2009;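 active = most replicates above 75%; inconclusive = exactly half above 75%; inactive = most below 75%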;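 also: all wells also contain fluconazole at 8 µg/ml as a sub-toxic cotreatment; 0% = median of DMSO wells and 100% = median of geldanamycin control wells; wells of about 8 µL received 7.5 nL stock; the first replicate is given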
# rRNA inh HTS OD600: second read-out of rRNA inh HTS, no call of its own (marks repeat the call); OD600 change, %; measured here: OD600 growth;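 optical density of the mix in the first replicate; 0 = DMSO median and -100 = no signal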
# rRNA inh HTS RFP: second read-out of rRNA inh HTS, no call of its own (marks repeat the call); RFP signal change, %; measured here: RFP humanized mutant strains;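 first replicate; 0 = DMSO median and -100 = no signal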
# * marks the source's active call; other numbers are inactive results; ? = inconclusive; · = not tested or not shown. The list is partial; rates above refer to the full screens.
SMILES,rRNA inh HTS,rRNA inh HTS OD600,rRNA inh HTS RFP,Beta cell apopt,Bfl-1 A1 inh,LANA-H2A inh,ALR H2O2 inh,Beta2AR agonist,T cruzi repl,Calb FLC
Cc1csc(NC(=O)C2CCCN(S(=O)(=O)c3ccc4c(c3)oc(=O)n4C)C2)n1 (centres undefined),-4,-7,1.3,1,0.0,-2.1,2,-36,2,-10
Cn1cc(S(=O)(=O)N2CCN(C(=O)c3ccco3)CC2)c(=O)n(C)c1=O,16,12,1.2,-8,-0.8,0.3,-8,3,-8,-5
CC(=O)c1c(C)[nH]c(C(=O)OCc2c(F)cccc2Cl)c1C,8,6,-2.2,-6,0.5,1.3,13,-7,7,-8
COC(=O)C(C)(C(=O)OC)c1ccc(C(F)(F)F)cc1[N+](=O)[O-],8,13,-4.1,-5,0.5,-1.4,-12,3,-2,-4
O=C(Nc1ccc(F)cc1F)c1cccc(C(=O)Nc2ccc(F)cc2F)n1,-10,-3,-4.6,69,0.8,-1.9,-2,6,-10,-5
COc1cccc(NC(=O)CC(=O)c2ccccc2)c1,2,3,3.8,-5,-4.1,7.6,·,-4,-12,-2
CC(CCc1ccccc1)NCc1cccc2ccccc12 (centres undefined),-27,-38,10,7,0.9,-9.3,-15,-1,18,2
COc1cc2c(C#N)c(N3CCCCC3)nc(N)c2c(N)n1,·,·,·,6,0.1,-1.0,53,11,11,-8
Cc1ccc(C)c(N2CCN(C(=O)Cn3ncc4c([nH]c5ccc(C)cc54)c3=O)CC2)c1,4,11,-2.1,1,-1.4,4.6,-5,-4,-1,0
COCc1cc(C)nc(OCC(=O)N/N=C/c2ccc(C)cc2)c1C#N,8,-2,-1.0,-14,0.2,-6.5,-6,-7,4,-8
Cc1cc(C)nc(CC(N)=O)n1,·,·,·,-2,0.3,5.2,-9,-2,-5,-6
Cc1ccc(O)c(C(CC(=O)NCc2cccnc2)c2ccccc2)c1 (centres undefined),5,-4,1.6,0,-0.1,-0.1,16,5,-20,-1
C#CCSc1nc2ccccc2n1C(=O)c1ccc(S(=O)(=O)N2CCCCC2)cc1,6,-1,0.8,0,0.3,-43,1,4,·,·
CSc1nsc(SC)c1C(=O)O,6,7,-2.7,·,0.0,-1.4,-18,4,-18,-7
COc1ccccc1NC(=O)CN(Cc1ccco1)C(=O)c1ccc(Cl)nc1,8,-2,3.5,-11,1.5,-5.1,-2,-10,-5,0
COc1cc(C(=O)Nc2nc(-c3cc(C)ccc3C)c(C)s2)ccc1OCC(=O)Nc1ccc(F)cc1,12,6,-2.9,·,0.3,5.9,0,6,-15,2
Cc1cc(C)n(-c2nc(C)nc3sc4c(c23)CCC(C)C4)n1 (centres undefined),·,·,·,-1,0.5,-6.8,-3,-6,-1,11
CCC(=O)Oc1ccc(C(=O)Nc2c[nH]c(=O)[nH]c2=O)cc1,19,6,-1.4,2,0.7,-8.2,2,1,-13,?
O=C(COC(=O)c1cc(NS(=O)(=O)c2cccs2)ccc1O)Nc1cc(Cl)ccc1Cl,2,8,6.9,-3,-0.1,6.8,-4,9,-3,3
Cc1cccc(C(=O)Nc2nnc(S(=O)(=O)N3CCCCCC3)s2)c1,-1,1,-1.2,4,-2.7,0.9,·,6,0,12
COC(=O)c1ccc(CNC(=O)CSc2nc3ccccc3[nH]2)cc1,2,4,-1.9,5,0.1,-2.6,41,0,-1,-4
CCc1sc(C(=O)N2CCc3ccccc32)cc1C,-21,-14,-6.6,10,-7.3,7.0,7,-6,-3,-28
Cc1cc(C(=O)NNC(=O)CCC2CCCCC2)c(C)o1,-2,8,3.1,-8,0.3,-0.5,1,-4,-6,1
COc1ccccc1NC(=O)COC(=O)COc1cccc2c1OC(C)(C)C2,1,3,-1.2,-8,0.0,2.8,-8,0,-17,2
COCCN1Cc2cccc(C(=O)Nc3cccc(-c4nc5ccccc5[nH]4)c3)c2C1=O,5,5,21,39,-1.2,2.2,·,15,35,12

# Just Beta2AR agonist and rRNA inh HTS, for some of the entries so far:
molecule | Beta2AR agonist | rRNA inh HTS
Cc1ccc(C)c(N2CCN(C(=O)Cn3ncc4c([nH]c5ccc(C)cc54)c3=O)CC2)c1 | -4 | 4
COCc1cc(C)nc(OCC(=O)N/N=C/c2ccc(C)cc2)c1C#N | -7 | 8

# Looked up by structure from the list above (3):
SMILES,rRNA inh HTS,rRNA inh HTS OD600,rRNA inh HTS RFP,Beta cell apopt,Bfl-1 A1 inh,LANA-H2A inh,ALR H2O2 inh,Beta2AR agonist,T cruzi repl,Calb FLC
Cn1cc(S(=O)(=O)N2CCN(C(=O)c3ccco3)CC2)c(=O)n(C)c1=O,16,12,1.2,-8,-0.8,0.3,-8,3,-8,-5
COc1cccc(NC(=O)CC(=O)c2ccccc2)c1,2,3,3.8,-5,-4.1,7.6,·,-4,-12,-2
COCc1cc(C)nc(OCC(=O)N/N=C/c2ccc(C)cc2)c1C#N,8,-2,-1.0,-14,0.2,-6.5,-6,-7,4,-8

# Next structures follow:
SMILES,rRNA inh HTS,rRNA inh HTS OD600,rRNA inh HTS RFP,Beta cell apopt,Bfl-1 A1 inh,LANA-H2A inh,ALR H2O2 inh,Beta2AR agonist,T cruzi repl,Calb FLC
CSCCC(NC(=O)c1ccccc1Cl)C(=O)N1CCN(C(c2ccccc2)c2ccccc2)CC1 (centres undefined),12,7,-0.5,10,0.1,1.3,-6,3,?,1
O=S(=O)(/N=C/c1c(O)ccc2ccccc12)c1cccs1,·,·,·,-11,0.1,2.0,-34,·,-1,-5
Nc1[nH]nc2ncc3cc4ccccc4nc3c12,-27,-24,-6.9,-1,0.2,2.1,·,15,-14,32
CN(C1=C(N2CCOCC2)C(=O)c2ccccc2C1=O)c1ccccc1,·,·,·,-5,0.3,-2.4,71,-1,-1,9
CC1(C)CC(=O)C2=C(C1)N(c1cccc(O)c1)C1=C(C2)C(=O)CC(C)(C)C1,·,·,·,0,3.4,-0.5,12,4,5,29
CC(C)C(=O)N1CCC(n2nccc2NC(=O)CCc2ccccc2)CC1,3,10,-2.4,-10,0.4,-0.4,-3,6,-4,0
Cc1ccc2c(c1)N(CC(=O)N1CCCCC1C)C(=O)CO2 (centres undefined),5,1,-2.4,5,1.2,0.9,-1,2,-3,5
O=C1CCC(=O)N1c1ccc(NCCc2cccc(F)c2)c([N+](=O)[O-])c1,-1,8,-5.3,-4,-0.6,-4.9,10,0,-6,-1
O=C1c2cccc(Cl)c2C(=O)c2c1cccc2N1CCCC1,·,·,·,-1,0.3,8.1,-28,5,11,19
CCOC(=O)c1c(C)[n+](-c2ccc(C)cc2)c(CC)c2cc(OC)c(OC)cc12,-42,-42,-1.5,33,1.3,-0.4,-8,-2,55*,-16
COc1ccc(C(=O)N(C)C2CCN(C)CC2)cc1S(=O)(=O)Nc1cc(Cl)ccc1Cl,·,·,·,-4,-0.3,-5.0,-22,·,41,-1
CCc1cc2c(=O)c(-c3nc4ccccc4n3C)c(C(C)C)oc2c(CN2CCN(C)CC2)c1O,·,·,·,-18,0.6,-5.7,-7,-13,-2,15
COc1ccc(N2C(=O)C3C4C=CC(C4)C3C2=O)nn1 (centres undefined),·,·,·,0,0.4,-0.9,·,7,-4,-3
CCCc1cc(C(=O)Nc2sc(C(C)=O)c(C)c2C(=O)OCC)no1,-1,-5,-4.4,0,0.9,1.3,-19,0,-11,3
Nc1cc(C(F)(F)F)ccc1N1CCOCC1,-1,12,0.3,1,-0.4,1.5,7,0,3,-7
O=C1CCCC(=O)N1c1ccc(N2CCN(c3ccc([N+](=O)[O-])cc3)CC2)c([N+](=O)[O-])c1,·,·,·,3,0.2,1.7,·,·,-1,1
CN(C)c1ncnc2sc(-c3ccccc3)cc12,-45,-65,-13,·,-1.0,5.9,54,-12,-6,3
O=C(COc1ccccc1)Nc1nnc(-c2ccc(Cl)cc2)o1,-3,-48,5.5,-2,0.5,3.6,0,3,1,1
Clc1ccccc1CSc1nncn1-c1cccnc1,·,·,·,0,1.0,0.3,-8,·,-13,3
COc1cccc(OC)c1C(=O)Nc1ccc(S(=O)(=O)Nc2ncccn2)cc1,1,8,-0.8,·,-1.3,-3.8,1,7,-3,0
COC(=O)CSc1ccc(S(=O)(=O)N2CCCCCC2)cc1[N+](=O)[O-],6,13,-2.8,-3,0.5,3.4,-9,7,-2,-8
Cn1cnc2cc(NCc3ccc(Cl)cc3)ccc21,·,·,·,0,-1.8,-1.0,94*,-6,-9,-20
Cc1nn(-c2ccccc2)c(NC(=O)c2cccs2)c(-c2ccccc2Cl)c1=O,13,11,4.2,-4,0.1,-8.5,·,-4,·,50
CCOC(=O)N1CCN(C(=O)c2cc(OCC)c(OCC)c(OCC)c2)CC1,16,9,2.3,-2,0.0,-3.3,-2,12,-19,8
C#CCOCCOCCOCCNc1nc(N2CCN(C(=O)[C@H]([C@@H](C)CC)n3cc([C@@H](N)CO)nn3)CC2)nc(N2CCN(C(=O)[C@H](Cc3ccc(O)cc3)n3cc([C@@H](N)CC(C)C)nn3)CC2)n1,-1,6,0.3,-6,0.8,0.8,-8,-3,-9,-15
CNc1nc2c(C)cccn2c(=O)c1C=NCc1ccccc1,·,·,·,4,-0.2,1.8,-12,5,0,-13
Cc1ccc(C)c(NC(=S)NC(NC(=O)N(C)C)C(Cl)(Cl)Cl)c1 (centres undefined),·,·,·,-10,-0.1,-2.5,3,-5,-1,7

# Compound profiles, as listed above. Order of screens: rRNA inh HTS, rRNA inh HTS OD600, rRNA inh HTS RFP, Beta cell apopt, Bfl-1 A1 inh, LANA-H2A inh, ALR H2O2 inh, Beta2AR agonist, T cruzi repl, Calb FLC
# Entry for O=C(COc1ccccc1)Nc1nnc(-c2ccc(Cl)cc2)o1 → -3, -48, 5.5, -2, 0.5, 3.6, 0, 3, 1, 1
# Entry for CC(C)C(=O)N1CCC(n2nccc2NC(=O)CCc2ccccc2)CC1 → 3, 10, -2.4, -10, 0.4, -0.4, -3, 6, -4, 0
# Entry for CCOC(=O)c1c(C)[n+](-c2ccc(C)cc2)c(CC)c2cc(OC)c(OC)cc12 → -42, -42, -1.5, 33, 1.3, -0.4, -8, -2, 55*, -16

# Bioassay records: PubChem, several laboratories
